Rce1 inhib – inhibitors of yeast Ras-converting enzyme; Q03530; yeast membranes, quenched prenylated peptide cleavage fluorescence; calls only; 0.27% of 290,000 active; AID 2563;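 active = fall in fluorescence gain of 50% or more versus controls, with final raw signal at or below 3038400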;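 note: plate controls were neutral control wells for no effect and wells lacking membranes for full effect; tested at 10 µM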
Target sequence (Q03530 whole entry, looked up): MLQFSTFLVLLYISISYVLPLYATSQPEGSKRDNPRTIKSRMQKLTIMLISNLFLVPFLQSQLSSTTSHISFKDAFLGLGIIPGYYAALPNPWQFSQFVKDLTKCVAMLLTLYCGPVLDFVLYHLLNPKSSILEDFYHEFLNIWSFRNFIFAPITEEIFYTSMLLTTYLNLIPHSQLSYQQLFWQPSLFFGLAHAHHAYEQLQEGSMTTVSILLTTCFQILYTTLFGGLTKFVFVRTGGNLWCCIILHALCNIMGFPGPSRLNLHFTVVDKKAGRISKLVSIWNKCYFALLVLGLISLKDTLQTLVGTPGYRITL
MT1-MMP act inh – blocks activation of human MT1-MMP; P50281; HT1080 RFP-PRO-GFP cells, GFP/RFP ratio fluorescence, overnight; percent of plate control window, DMSO zero; GFP/RFP ratio change, % at 20 µM; 0.061% of 360,000 active;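 active = GFP/RFP ratio change of at least 30% with cell ATP level not reduced by more than half and red fluorescence within 50% of control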; note: strong numbers were not always called active
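Assay system: HT1080 cells carrying an RFP-PRO-GFP reporter | Dosing: Single dose of 20 µM compound, 1% DMSO final | Incubation: Cells overnight before dosing, compound overnight, 37 °C, 5% CO2 | Evaluation: GFP/RFP fluorescence ratio | Control set: DMSO and RFP-L50D-GFP cell wells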
eIF4H FP inh – inhibitors of RNA binding by human eIF4H; inhibition, % at 35 µM; 0.94% of 290,000 active; Q15056; eIF4H fluorescence polarization binding assay; AID 2012;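 active = 50% or more with normal probe brightness, or confirmed in later tests; about a fifth of its hits are not listed in these tables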;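 note: calls also rest on retests at 20 µM and on dose response follow-up; 0% = protein and probe with vehicle and 100% = probe without protein; strong numbers were not always called active; many hits fall short of the cut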
CSC inhib – cancer stem cell inhibition. cancer stem cell-like cells viability, luminescence. inhibition, % at 7.5 µM. 1.1% of 300,000 active. AID 2717;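 active = mean at 75% or more and at least half the replicates too; tested in HMLE shEcad cells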;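 note: 0% = median of negative and 100% = median of positive control wells; the first replicate is given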
Env fusion inh – HIV envelope-mediated fusion inhibition; 1.1% of 360,000 active; HeLa-JRFL Env/CEM21 cell fusion, luciferase; AID 651610; inhibition, % at 12.3 µM;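 active = mean replicate inhibition score of at least 50 and every replicate individually at or above 50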;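 note: 0% = plate neutral controls and 100% = maraviroc near 300 nM; one replicate is shown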
UUG fidelity – modulators of start codon recognition fidelity in yeast; S. cerevisiae UUG-firefly luciferase reporter, luminescence/redox ratio; activity score, % at 18.7 µM; 0.13% of 350,000 active; AID 602363;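 active = replicate mean at a twofold rise or more, about +100% in these data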;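 note: firefly luciferase made from a UUG start codon reports start codon fidelity; reporter light over untreated wells divided by growth signal over untreated wells; some hits fall short of that in this replicate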
PABP polyA inh – PABP-poly(A) binding inhibition; P11940; PABP-poly(A) RNA binding, fluorescence polarization; inhibition, % at 35 µM; 1% of 290,000 active; AID 2014;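 active = 50% or more with normal probe brightness, or confirmed in later tests; about a fifth of its hits are not listed in these tables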;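 note: calls also rest on retests at 20 µM and on dose response follow-up; controls were probe without protein and protein plus probe with vehicle; some compounds called inactive have numbers as strong as hits; many hits fall short of the cut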
MT1-MMP act inh RFP – also measured in MT1-MMP act inh; calls as there; RFP signal change, %; measured here: RFP expression control read;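 0 = vehicle wells; hits needed this value within 50% of zero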
Starred values were filed as active, the others as inactive; i = inactive; nt = no result given. Hits appear at their usual frequency; overall some 2.9% were active at least once.

SMILES	Rce1 inhib	MT1-MMP act inh	MT1-MMP act inh RFP	eIF4H FP inh	CSC inhib	Env fusion inh	UUG fidelity	PABP polyA inh
O=C(CCNS(=O)(=O)c1ccccc1F)N1CCN(S(=O)(=O)c2cccc(F)c2)CC1	i	-1	1	nt	15	2	15	nt
Cn1cccc1/C=C1\CC(C(C)(C)C)C/C(=C\c2cccn2C)C1=O (stereo unspecified)	i	-254	-2	51*	43	-6	nt	60*
COc1ccc(CCNC(=O)CN2C(=O)COc3ccc(S(=O)(=O)N4CCOCC4)cc32)c(OC)c1	i	1	1	-6	5	8	7	-7
COCc1ccc(CN2CCC(Oc3ccc(C(=O)NCc4ccccn4)cc3)CC2)o1	i	-1	4	-2	-9	i	-16	-1
Cc1csc(CN(C)C(=O)C2CCC(=O)N(Cc3ccc(Cl)cc3)C2)n1 (stereo unspecified)	i	-4	-2	-10	-13	1	3	12
COc1ccc(-c2nc(SCc3ccccc3)n(C(=O)c3ccco3)n2)cc1	i	-1	-2	-8	-6	-32	-7	-6
CC(C)CSc1n[nH]c(N)n1	i	4	8	2	-13	-15	nt	-4
COc1cc2oc(=O)c3c(c2cc1OCC(=O)c1c(C)n(C)c2ccccc12)CCCC3	i	7	4	-13	nt	0	nt	-8
CCOC(=O)Cc1csc(NC(=O)COc2ccc3c(c2)CCC3)n1	i	-3	3	0	-2	11	-6	10
COc1ccc(NC2CCCN(C(=O)CCN3CCCC3=O)C2)cc1 (stereo unspecified)	nt	-2	-2	-4	-6	15	-17	-8
CCCNC(=O)CN1CCC(c2nc3ccccc3[nH]2)CC1	i	1	3	nt	-16	2	-6	nt
CC1(C)COC2(OC1)C(=O)N(CN1CCOCC1)c1ccccc12	i	2	4	-10	-3	25	nt	-3
OC(COCc1ccc(Cl)cc1)CN1CCCCC1 (stereo unspecified)	i	2	3	-2	7	-12	-9	-6
O=C(c1cc(-c2ccc(Cl)cc2)nc2ccccc12)N1CCC1	i	-1	0	nt	-5	-2	-5	nt
CC1(C)Cc2c(C#N)c(SCC(=O)O)nc(N3CCOCC3)c2CO1	i	-2	3	nt	10	1	4	nt
Cc1ccn2c(NCc3ccccc3)c(-c3cccs3)nc2c1	i	2	-5	-2	nt	-24	nt	2
Cc1ccc(S(=O)(=O)/N=C(/Nc2cccc(C(=O)O)c2)c2ccccc2)cc1	i	-2	3	-5	nt	9	-12	2
COCCNC(=O)c1ccc(CS(=O)(=O)c2ccccc2C)o1	i	0	-2	-1	4	17	-13	2
COC(=O)C[C@@H]1C[C@@H]2c3cc(NC(=O)Cc4ccncc4)ccc3O[C@@H]2[C@@H](CO)O1	nt	4	8	nt	nt	2	-8	nt
CCOc1ccc(C(=O)N2CCN(Cc3ccccc3)CC2)cc1OCC	i	nt	nt	-9	nt	6	4	-5
Cc1cc(C(=O)CCC(=O)N2CCN(c3ccccc3F)CC2)c(C)s1	i	-1	2	0	-2	-3	nt	4
O=C(O)c1ccc(-n2cccn2)c([N+](=O)[O-])c1	i	nt	nt	-1	-10	-19	nt	-10
N#CCOC(=O)c1cc(S(=O)(=O)N2CCCCC2)ccc1N1CCOCC1	nt	0	0	nt	-7	-1	-1	nt
CC1(C)N=C2C(=[N+]1[O-])CCC/C2=N\O	i	8	3	-10	-2	2	-4	-2
Cc1ccc(S(=O)(=O)Nc2cccc3ncccc23)cc1	i	4	-6	3	-6	1	-14	11
O=C(N/N=C/c1ccccc1F)c1csc2c1CCCC2	i	4	3	5	23	nt	-6	-3
O=C(CN1CCOCC1)Nc1ccc(Cl)cc1	i	4	5	-9	-9	-9	-4	6
COCCNC(=O)c1ccccc1NC(=O)c1ccccc1N(C)S(C)(=O)=O	i	4	4	-10	-11	9	-18	-5
Cc1ccc(-n2nc3c([n+]2[O-])CCc2c-3no[n+]2[O-])cc1	i	-12	-4	-2	8	-58	-12	9
COc1cc(OC)c(C2SCCCS2)cc1OC	i	1	0	4	-7	nt	nt	9
Cc1cccc(N2CCN(C(=O)c3cc4c(=O)[nH]c5ccccc5c4n3C)CC2)c1C	i	8	-9	nt	32	16	-17	nt
CC(NCc1cccs1)c1ccccc1 (stereo unspecified)	i	0	4	8	-7	8	nt	0
O=C(O)COc1ccc2occ(C(=O)c3ccccc3)c2c1	i	-2	-3	0	-5	nt	-5	-4
CCCCC(=O)Nc1ccc(C(=O)Nc2cccnc2)cc1	i	12	0	0	-2	-69	-21	2
CC(=O)Nc1ccc(S(=O)(=O)NCCc2ccc3c(c2)OCCO3)cc1	nt	1	3	nt	nt	-1	9	nt
O=C(NCc1ccncc1)C(=O)NCC1OCCN1S(=O)(=O)c1ccc(Cl)cc1 (stereo unspecified)	i	-1	-3	2	41	15	-19	-5
Cc1ccc(/C=C/C(=O)NCc2cccs2)c(C)c1	i	1	-2	-16	nt	-23	nt	0
COc1ccc(C2=NO[C@H]3C[C@](C(=O)NC(C)C)(S(=O)(=O)c4ccccc4)C[C@@H]23)cc1	i	0	0	-7	-9	nt	-8	3
COc1cc(/C=C(\C#N)c2nc3ccccc3[nH]2)ccc1Oc1ccc([N+](=O)[O-])cn1	i	-52	-18	-5	18	nt	-18	-6
Cc1ccc(NC(=O)CN(C)C(=O)c2ccccn2)cc1	nt	0	0	nt	nt	10	-9	nt
COC(CNC(=O)CCc1c(C)nc2c(-c3ccc(F)cc3)c(C)nn2c1C)OC	i	-1	1	-6	7	-44	10	8
CCCCSCCCNC(=O)Nc1ccc(C)c(C)c1	i	3	7	6	-23	3	nt	3
COc1ccc(C(=O)NNC(=O)c2ccncc2)cc1[N+](=O)[O-]	i	-2	1	-6	0	8	-24	-4
NC(=O)Cc1c[nH]c2cccc(O)c12	i	0	-3	6	-12	17	-4	-3
C/C(=N\N1CCN(C)CC1)c1ccc(OC(F)F)cc1	i	1	2	4	63	7	nt	-6
O=C(CS(=O)(=O)c1cn(Cc2cccc(F)c2)c2ccccc12)N1CCCCC1	i	2	-4	-5	-3	16	-13	6
COc1ccc(/C=N/Nc2ccc([N+](=O)[O-])cc2S(=O)(=O)N2CCN(C)CC2)cc1	i	-136	-3	-1	-7	nt	-5	-6
CCC(=O)Nc1ccc(S(=O)(=O)N2CCc3ccccc3C2)cc1	i	0	-6	-2	29	10	-19	6
FC(F)(F)c1nc2ccccc2n2c(-c3ccc(Cl)cc3Cl)nnc12	i	-5	-5	1	nt	nt	-3	1
O=S(=O)(CCc1ccncc1)C1Cc2cccc3cccc1c23 (stereo unspecified)	i	-1	1	18	16	5	-12	3
Cc1cc(NC(=O)CCC(=O)N(c2ccccc2)C(C(=O)NC2CCCC2)c2ccccc2C)no1 (stereo unspecified)	i	-2	3	19	nt	13	4	13
O=C(COC(=O)COc1cc(Cl)c(Cl)cc1Cl)NC1CC1	nt	4	6	nt	-14	2	nt	nt
CCOC(=O)N1CCN(CC(O)COCC2=CCC3CC2C3(C)C)CC1 (stereo unspecified)	i	4	-1	5	-8	nt	-4	3
CC(=O)NCCc1ccc(S(=O)(=O)Nc2ccc3c(c2)OCCO3)cc1	i	-1	-8	nt	-7	6	nt	nt
Cc1cc(C)cc(-n2c(C)cc(/C=N/NC(=O)c3ccncc3)c2C)c1	i	3	5	-6	-5	-14	-27	-4
O=C(O)Cc1ccc(NC(=O)c2cnccn2)cc1	i	5	3	12	1	3	-20	12
Cc1ccc(C(=O)Nc2ccc(CC(=O)O)cc2)o1	i	1	3	0	-7	-19	-10	12
O=C(c1cc(Cl)ccc1Cl)N1CCN(Cc2ccccc2)CC1	i	-5	1	-8	-12	19	-1	-8
Cc1ccc(C)n1-c1ccc(C(=O)NN)cc1	i	3	6	-8	nt	1	nt	2
CCc1ccccc1NC(=O)CCN1C(=O)C2CC=CCC2C1=O (stereo unspecified)	i	-2	3	5	-6	12	0	2

New compounds follow:
SMILES	Rce1 inhib	MT1-MMP act inh	MT1-MMP act inh RFP	eIF4H FP inh	CSC inhib	Env fusion inh	UUG fidelity	PABP polyA inh
CCCCn1c(Cn2nc(C(=O)O)c3ccccc3c2=O)nc2cc(S(N)(=O)=O)ccc21	i	0	1	-11	-3	0	-9	9
COc1ccc(N(CC(=O)Nc2cccc(SC)c2)S(C)(=O)=O)cc1	i	3	0	-6	-4	nt	-8	-2
Cc1cc(C)n(CCCNC(=O)C(C)(C)Oc2ccc(Cl)cc2)n1	nt	-3	2	nt	-6	nt	-23	nt
COc1ccc(C(=O)N/C(=C\c2ccco2)C(=O)OCc2ccco2)cc1	i	-3	0	7	-15	-13	nt	5
O=C(CS(=O)(=O)c1ccc(Cl)cc1)N1CCN(c2ccccc2)CC1	nt	-2	0	nt	nt	1	-17	nt
CC(C)(C)c1ccc(C(=O)NC(=S)N2CCCC2)cc1	i	2	2	-12	13	-24	-31	2

Of the compounds above, ten have a Cl atom.
SMILES	Rce1 inhib	MT1-MMP act inh	MT1-MMP act inh RFP	eIF4H FP inh	CSC inhib	Env fusion inh	UUG fidelity	PABP polyA inh
Cc1csc(CN(C)C(=O)C2CCC(=O)N(Cc3ccc(Cl)cc3)C2)n1 (stereo unspecified)	i	-4	-2	-10	-13	1	3	12
OC(COCc1ccc(Cl)cc1)CN1CCCCC1 (stereo unspecified)	i	2	3	-2	7	-12	-9	-6
O=C(c1cc(-c2ccc(Cl)cc2)nc2ccccc12)N1CCC1	i	-1	0	nt	-5	-2	-5	nt
O=C(CN1CCOCC1)Nc1ccc(Cl)cc1	i	4	5	-9	-9	-9	-4	6
O=C(NCc1ccncc1)C(=O)NCC1OCCN1S(=O)(=O)c1ccc(Cl)cc1 (stereo unspecified)	i	-1	-3	2	41	15	-19	-5
FC(F)(F)c1nc2ccccc2n2c(-c3ccc(Cl)cc3Cl)nnc12	i	-5	-5	1	nt	nt	-3	1
O=C(COC(=O)COc1cc(Cl)c(Cl)cc1Cl)NC1CC1	nt	4	6	nt	-14	2	nt	nt
O=C(c1cc(Cl)ccc1Cl)N1CCN(Cc2ccccc2)CC1	i	-5	1	-8	-12	19	-1	-8
Cc1cc(C)n(CCCNC(=O)C(C)(C)Oc2ccc(Cl)cc2)n1	nt	-3	2	nt	-6	nt	-23	nt
O=C(CS(=O)(=O)c1ccc(Cl)cc1)N1CCN(c2ccccc2)CC1	nt	-2	0	nt	nt	1	-17	nt

Screening results: PubChem, several laboratories
